High-throughput results as filed in PubChem BioAssay.
Rce1 inh: inhibitors of yeast Ras-converting enzyme. Q03530. yeast membranes, quenched prenylated peptide cleavage fluorescence. calls only. actives 0.27% (n = 290,000). AID 2563;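 active = fall in fluorescence gain of 50% or more versus controls, with final raw signal at or below 3038400; inconclusive = same 50% fall but final raw signal above 3038400; inactive = fall in fluorescence gain under 50%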;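 also: plate controls were neutral control wells for no effect and wells lacking membranes for full effect; tested at 10 µM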
Target sequence (Q03530 whole entry, looked up): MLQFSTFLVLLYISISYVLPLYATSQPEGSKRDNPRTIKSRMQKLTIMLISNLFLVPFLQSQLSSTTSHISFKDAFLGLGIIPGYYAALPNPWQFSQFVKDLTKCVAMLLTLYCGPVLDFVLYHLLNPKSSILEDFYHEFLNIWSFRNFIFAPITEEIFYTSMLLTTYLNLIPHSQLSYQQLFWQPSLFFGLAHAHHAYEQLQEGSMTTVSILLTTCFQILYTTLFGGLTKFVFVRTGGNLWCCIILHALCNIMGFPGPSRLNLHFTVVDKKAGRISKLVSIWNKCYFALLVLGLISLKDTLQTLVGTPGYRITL
CSC inhib: blocks cancer stem cells; inhibition, % at 7.5 µM; actives 1.1% (n = 300,000); cancer stem cell-like cells viability, luminescence;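 active = mean at 75% or more and at least half the replicates too; inconclusive = mean and replicates disagree; tested in HMLE shEcad cells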;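 also: 0% = median of negative and 100% = median of positive control wells; the first replicate is given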
Yeast UUG start: yeast start codon fidelity modulation | AID 602363 | actives 0.13% (n = 350,000) | activity score, % at 18.7 µM | S. cerevisiae UUG-firefly luciferase reporter, luminescence/redox ratio;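 active = replicate mean at a twofold rise or more, about +100% in these data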;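 also: firefly luciferase made from a UUG start codon reports start codon fidelity; reporter light over untreated wells divided by growth signal over untreated wells; some hits fall short of that in this replicate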
HIV Env fusion: blocks HIV Env-driven cell-cell fusion. AID 651610. inhibition, % at 12.3 µM. actives 1.1% (n = 360,000). HeLa-JRFL Env/CEM21 cell fusion, luciferase;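 active = mean replicate inhibition score of at least 50 and every replicate individually at or above 50; inconclusive = only one of the two criteria met; inactive = mean below 50 and not all replicates reaching 50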;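 also: 0% = plate neutral controls and 100% = maraviroc near 300 nM; one replicate is shown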
eIF4H inh: inhibitors of RNA binding by human eIF4H | eIF4H fluorescence polarization binding assay | actives 0.94% (n = 290,000) | Q15056 | inhibition, % at 35 µM;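 active = 50% or more with normal probe brightness, or confirmed in later tests; inconclusive = above 50% with abnormal brightness, or retests that disagree; inactive = below 50% or failed in later tests; about a fifth of its hits are not listed in these tables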;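 also: calls also rest on retests at 20 µM and on dose response follow-up; 0% = protein and probe with vehicle and 100% = probe without protein; strong numbers were not always called active; many hits fall short of the cut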
MT1-MMP act inh: MT1-MMP (human) activation inhibition; P50281; HT1080 RFP-PRO-GFP cells, GFP/RFP ratio fluorescence, overnight; percent of plate control window, DMSO zero; GFP/RFP ratio change, % at 20 µM; actives 0.061% (n = 360,000); AID 651647;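 active = GFP/RFP ratio change of at least 30% with cell ATP level not reduced by more than half and red fluorescence within 50% of control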; also: strong numbers were not always called active
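Assay system: HT1080 RFP-PRO-GFP cells | Dosing: 20 µM single dose, 1% DMSO | Incubation: Cells overnight before dosing, compound overnight, 37 °C, 5% CO2 | Evaluation: GFP/RFP fluorescence ratio | Control set: DMSO-only wells and HT1080 RFP-L50D-GFP cell wells as references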
PABP FP inh: PABP-poly(A) binding inhibition. P11940. PABP-poly(A) RNA binding, fluorescence polarization. inhibition, % at 35 µM. actives 1% (n = 290,000). AID 2014;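 active = 50% or more with normal probe brightness, or confirmed in later tests; inconclusive = above 50% with abnormal brightness, or retests that disagree; inactive = below 50% or failed in later tests; about a fifth of its hits are not listed in these tables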;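 also: calls also rest on retests at 20 µM and on dose response follow-up; controls were probe without protein and protein plus probe with vehicle; some compounds called inactive have numbers as strong as hits; many hits fall short of the cut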
eIF4H inh retest: also measured in eIF4H inh; calls as there; inhibition, %; compound at 20 µM; confirmation average;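 mean of two retest wells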
PABP FP inh retest: recorded beside PABP FP inh, whose call it bears; inhibition, %; compound at 20 µM; confirmation repeats;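 mean of two retest wells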
MT1-MMP act inh RFP: also measured in MT1-MMP act inh; calls as there; RFP signal change, %; measured here: RFP expression control read;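 0 = vehicle wells; hits needed this value within 50% of zero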
Starred values were filed as active, the others as inactive; i = inactive; ? = inconclusive; . = not tested or not shown.

SMILES	Rce1 inh	CSC inhib	Yeast UUG start	HIV Env fusion	eIF4H inh	MT1-MMP act inh	MT1-MMP act inh RFP	PABP FP inh	others
O=C1/C(=N\O)Cc2ccccc21	.	4	.	-15	3	-6	3	-8
CC(C)(C)c1ccc2c(c1)OC(C(=O)N/N=C\c1ccncc1)CO2 (configuration not stated)	i	-4	-7	2	-9	4	-9	0
Cc1c(/C=N/Nc2ccc(F)cc2)c(O)n(C)c(=O)c1C#N	i	23	.	6	81	11	11	37*	eIF4H inh retest=0;PABP FP inh retest=81*
CCOc1ccc(CCNC(=O)Cc2nn[nH]n2)cc1OCC	i	-19	-23	.	3	0	1	1
CN(C(=O)c1ccc(NC(=O)Cc2cccc(NC(=O)C3CCN(C(=O)C4CC4)CC3)c2)cc1)C1CCCC1	.	-14	9	-9	.	1	0	.
Cc1ccc(/C=N/N(C)C2=NS(=O)(=O)c3ccccc32)o1	.	-2	.	.	13	.	.	-1
CCOC(=O)C1=CN(CC)S(=O)(=O)NC1CCc1ccccc1 (configuration not stated)	.	.	-7	-19	.	3	5	.
Cc1ccc(NC(=O)CSc2nnc(C)c(=O)n2N)c(C)c1	i	.	.	-1	2	0	3	-12
O=C(CN1C(=O)c2ccccc2C1=O)N1CCCCC1	i	1	-22	.	3	.	.	-4
COC(=O)c1c(C)oc2cc(Br)c(OCC(=O)C(C)(C)C)cc12	i	-12	-15	-3	-2	10	0	2
Cn1c2c(c3ccccc31)CCSC2=O	i	-17	-11	-326	3	-2	1	5
O=C(NCc1ccccc1)C1=C[C@@H](c2coc3ccccc3c2=O)C[C@@H](OCc2ccc(CO)cc2)O1	i	-1	7	50	-5	2	-3	-13
COCCn1c(C)cc(C(=O)CSc2nnc(C3CC3)n2C2CC2)c1C	.	.	-6	-5	.	1	-1	.
O=C1N[C@H]2CC=C[C@H]2N(Cc2cccs2)c2ccccc21	.	.	5	-4	.	2	1	.
O=C(CN1CCN(C(=O)c2cccc(-n3cnnn3)c2)CC1)Nc1ccccc1Cl	.	4	-6	3	.	0	-2	.
CCOC(=O)c1c(CC(C)C)csc1NC(=O)C(C)C	i	-16	0	.	-17	0	1	1
CC(C)Cc1ccc(C(C)C(=O)Nc2cccnc2)cc1 (configuration not stated)	i	27	-20	2	-13	5	-28	-7
Nc1ccc(-c2nc3ccc([N+](=O)[O-])cc3[nH]2)cc1	i	3	.	.	4	-2	-6	8
CCOc1ccc2c(c1)nc(NCCCO)n2Cc1ccccc1	i	37	-5	-1	-3	3	5	-3
Cc1ccc(S(=O)(=O)N2CCN(c3ccnc4cc(Cl)ccc34)CC2)cc1	i	-9	.	14	0	5	-13	-8
CCN(CC)S(=O)(=O)c1ccc(Cl)c(C(=O)Nc2cccnc2)c1	i	-5	-16	14	-9	3	-5	-9
COc1nc(NCCO)nc(Nc2ccccc2F)n1	i	-2	.	-8	-2	1	1	-4
COc1cccc(N2CCN(CC(=O)NCc3cccs3)CC2)c1	i	-2	-45	.	-4	2	2	15
COc1ccc(OC)c(C(=O)CCCC(=O)c2cc(OC)ccc2OC)c1	i	-7	-9	2	3	3	-5	6
CCc1nn(CC(=O)N2CCN(CC)CC2)c(=O)c2cccn12	i	-13	-10	-7	-4	-7	0	-14
Cc1ccc(-c2nnc(NCc3ccccc3)c3ccccc23)cc1	i	4	-6	19	-14	-1	-9	-5
O=C(Nc1nnc(-c2cccs2)s1)c1cccc(F)c1	i	3	-11	-15	-1	4	0	-18
O=C(Oc1ccc(-c2nnco2)cc1)c1ccc(F)c(S(=O)(=O)N2CCOCC2)c1	i	-8	4	.	.	-1	-1	.
Cn1c(=O)cc(N2CCN(C(=O)c3ccco3)CC2)[nH]c1=O	i	-5	-18	-4	3	2	1	7
Cc1ccc2nc(-c3cccc(Br)c3)cc(C(=O)NCC3CCCO3)c2c1 (configuration not stated)	i	2	-11	.	-3	3	-5	3
CCOC(=O)c1c(C)n(C)c2ccc(OCC(O)Cn3nc(C)c(Br)c3C)cc12 (configuration not stated)	i	27	-10	0	-1	4	-3	1
COc1cc(C(=O)NC(=S)Nc2ccc3c(c2)C(=O)N(C)C3=O)cc(OC)c1OC	i	-10	.	-7	10	-2	3	-8
O=C1c2ccccc2C(=O)c2c1cccc2N1CCOCC1	i	5	-7	.	6	4	-6	6
Cc1ccc(NC(=O)C2CCCN2C(=O)OCc2ccccc2)cc1C (configuration not stated)	i	6	-11	-13	-1	-6	-2	7
CC(=O)c1ccc(NC(=O)C2Cc3ccccc3CN2C(=O)c2ccccc2)cc1 (configuration not stated)	i	.	.	-61	2	-1	-2	-1
Cc1ccc(-c2csc(/C(C#N)=C/Nc3ccccc3SC(F)(F)F)n2)c(C)c1	i	32	.	20	9	-10	-6	12
COc1ccc(NC(=O)CN2C(=O)/C(=C3\SC(=S)N(C4CCS(=O)(=O)C4)C3=O)c3ccccc32)cc1 (configuration not stated)	i	.	9	3	3	-4	-11	0
Cc1ccc(C(=O)Nc2ccc(NC(=O)c3cccs3)cc2)cc1[N+](=O)[O-]	.	-15	-20	-67	13	4	3	5
COc1ccccc1N(C)S(=O)(=O)c1ccc(C(=O)N2CCCC(C(F)(F)F)C2)cc1 (configuration not stated)	i	3	-9	.	.	4	-10	.
CCOC(=O)c1ccc(NC(=S)NNC(C)(C)C)cc1	i	-5	-33	-164	-5	1	0	-14
Cc1ccc(CNC(=O)c2ccc(N3CCC4(CC3)CC(c3ccccc3)=NO4)c(NC(=O)c3c(Cl)cccc3Cl)c2)cc1	i	1	-14	9	.	8	3	.
Nc1c(Cl)c(Cl)nc(C(=O)OCC(=O)NCc2ccccc2)c1Cl	.	-5	-9	.	.	-4	3	.
O=C(N/N=C/c1ccc2c(c1)OCO2)/C(=C/c1ccc2c(c1)OCO2)NC(=O)c1ccccc1	i	0	.	.	7	0	-7	-5
CN(C)c1ccc(P(=O)(OC2CCCCC2)C(O)c2cccnc2)cc1 (configuration not stated)	i	5	-15	-36	-4	1	2	-6
O=C(CSc1nc2ccccc2n1CCc1ccccc1)NC1CCS(=O)(=O)C1 (configuration not stated)	i	-13	.	.	11	-6	1	7
COc1ccc([C@H]2/C=C\CN(C(=O)[C@H](Cc3ccccc3)NC(=O)OCC3c4ccccc4-c4ccccc43)CC(=O)N2Cc2ccc(F)cc2)cc1	i	6	-11	-38	.	0	0	.
COc1ccc(C2Sc3nncn3N2Cc2ccc(C#N)cc2)cc1 (configuration not stated)	i	5	.	.	-7	-4	0	-1
O=c1cc2c(nn1Cc1cccc(Cl)c1)-c1ccccc1CC2	i	.	-6	-52	-7	-5	-3	-8
CCc1c(C)nc(SCC(=O)c2cccs2)c(C#N)c1C	i	17	0	.	3	-53	-34	22
CN(C)Cc1csc(NC(=O)Nc2ccccc2Oc2ccccc2)n1	.	.	-25	19	.	-10	-3	.

Sorted by heavy-atom count (lowest first): some entries from above.
SMILES	Rce1 inh	CSC inhib	Yeast UUG start	HIV Env fusion	eIF4H inh	MT1-MMP act inh	MT1-MMP act inh RFP	PABP FP inh	others
COc1ccc(C2Sc3nncn3N2Cc2ccc(C#N)cc2)cc1 (configuration not stated)	i	5	.	.	-7	-4	0	-1
CN(C)c1ccc(P(=O)(OC2CCCCC2)C(O)c2cccnc2)cc1 (configuration not stated)	i	5	-15	-36	-4	1	2	-6
Cc1ccc(CNC(=O)c2ccc(N3CCC4(CC3)CC(c3ccccc3)=NO4)c(NC(=O)c3c(Cl)cccc3Cl)c2)cc1	i	1	-14	9	.	8	3	.

(cont.)
SMILES	Rce1 inh	CSC inhib	Yeast UUG start	HIV Env fusion	eIF4H inh	MT1-MMP act inh	MT1-MMP act inh RFP	PABP FP inh	others
CCCCc1c(C)nc2ccccc2c1SCCC#N	i	.	40	6	-11	-6	-2	-24
O=C(NC1CCN(C(=O)NC2CCCCC2)CC1)c1ccco1	i	4	.	-24	-1	0	3	1
CSc1ccccc1C(=O)C1CCCN(C(=O)c2ccc(N3CCOCC3)cc2)C1 (configuration not stated)	i	-13	.	7	-7	4	-12	3
CCCc1cc(=O)oc2cc(C)cc(OCC(=O)NC(Cc3c[nH]c4ccc(O)cc34)C(=O)O)c12 (configuration not stated)	i	-6	-1	.	12	13	8	11
CCSC1=N/C(=C\c2ccc(OC)cc2)C(=O)N1	i	-3	-10	.	2	-7	-3	25
COc1ccccc1CNC(=O)C1CCN(c2nc3ccccc3o2)CC1	i	-17	-6	6	-17	-3	-1	-5
CC1Cc2ccccc2N1C(=O)COC(=O)CSc1ccc(F)cc1 (configuration not stated)	i	-1	.	-14	.	3	10	.
CCN1C(=O)CSC1=NC12CC3CC(CC(C3)C1)C2	i	4	0	.	-1	-9	-1	0
CC(C)N(Cc1ccccc1)C(=O)CCc1ccccc1	i	-7	-9	-16	-2	-1	-1	-9
COC(=O)C1(C)NC(c2ccc(F)cc2)C2C(=O)N(c3ccc(C)cc3)C(=O)C21 (configuration not stated)	i	-25	2	10	-8	-2	-4	-1
CC1=CC=CC2=NC(=O)CC(C)(C(=O)N(CC(=O)NC(C)C)C3CCCC3)N12 (configuration not stated)	?	0	-20	.	-8	12	4	-3
CCCn1c(N2CCN(C(=O)Nc3ccccc3)CC2)nc2ccccc21	i	-14	0	-1	-8	4	1	-3
CCc1cccc(NC(=O)c2cnn(-c3ccccc3)c2C)c1	i	11	-27	-104	-8	-3	-8	0
O=C(NN1C(=O)C2C3C=CC([C@H]4CC34)[C@@H]2C1=O)c1ccc(Br)cc1 (some centres not stated)	i	17	.	11	-3	-1	-3	4
CCOc1cc(/C=N/O)ccc1OCc1ccc([N+](=O)[O-])cc1	i	.	-25	-28	-2	2	1	-4
O=C(CNC(=O)c1ccc(Cl)cc1)NCC(F)(F)F	i	-1	.	5	0	5	8	-8
Cn1cccc1/C=C1\SC(=O)N(c2ccc(O)cc2)C1=O	i	.	-14	-471	0.7*	-75	-3	80*	eIF4H inh retest=102*;PABP FP inh retest=78*
COc1ccc(/C=N/NC(C)(C)C)c(OC)c1	i	31	-13	7	-13	2	0	-3
Cc1nc2scc(C)n2c(=O)c1S(=O)(=O)NCc1ccccc1Cl	i	-17	2	6	-12	0	1	17
CCCn1c(SCC(=O)Nc2nnc(-c3ccccc3)s2)nnc1-c1ccccn1	i	-1	-8	-69	-3	-3	-3	6
CCc1ccccc1NC(=O)c1cnccn1	i	.	.	17	0	0	2	-2
CC(OC(=O)Cn1cnc2c1c(=O)n(C)c(=O)n2C)C(=O)NCc1ccccc1 (configuration not stated)	i	-12	-21	.	.	-5	1	.
CCOC(=O)C1CCCCN1Cc1ccc(C(F)(F)F)cc1 (configuration not stated)	i	-16	19	.	8	3	5	8
CC(=O)c1cccc(-c2ccnc3c2CC(C(=O)NCc2ccccc2)O3)c1 (configuration not stated)	.	.	6	-124	.	12	0	.
O=C(CCc1ccc(O)cc1)N/N=C/c1coc2ccccc2c1=O	i	-9	-5	15	1	0	0	5
CCC(=O)N1N=C(c2cccs2)CC1c1ccc(C)cc1 (configuration not stated)	i	-6	6	-6	7	-4	-1	19
O=[N+]([O-])c1ccc(/C=N/Nc2cc(Cl)nc(-c3ccccc3)n2)cc1	i	-5	-15	.	-4	0	4	-2
CCOCCCNc1nc2c(-c3ccccc3)nnn2c2ccccc12	i	-12	-42	-8	0	3	5	49
Cc1ccc(C)c(N(CC(=O)NC2CCCC2)S(=O)(=O)c2ccccc2)c1	.	6	-12	-1	-15	1	3	5
